# Screening data (PubChem)
# BJeLR viability: BJeLR cell viability reduction | 0.64% of 30,000 active | viability loss activity score, % (test concentration not listed) | BJeLR fibroblasts viability, CellTiterGlo ATP luminescence, 48 h; HRASV12, hTERT and SV40 LT/ST transformed | AID 2275; in the data active = viability loss activity score above about 50%; about a fifth of its hits are not listed in these tables;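 note: higher score means fewer live cells and less ATP luminescence; stock transfer was 50 or 100 nL into about 30 µL; 0% = vehicle wells and 100% = a reference killing control; one replicate is shown; the record names a cut of 85%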
# A1 inh: blocks A1 activity | MEF A1-2A-BIM cells, caspase-Glo luminescence, 3 h; percent of clofoctol signal, DMSO as zero | caspase activation, % (no concentration beside the values) | 0.51% of 21,000 active;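 active = most replicate scores above 10, or exactly half above 10 with mean activity above 10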;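 note: effector caspase 3 and 7 activity cleaving a DEVD luciferin substrate; 50 nL library stock added to about 30 µL; numbers are from one replicate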
# An asterisk follows results filed as active.
# The opening two records as a preview:
1: CCN1C[C@]2(COC)CC[C@H](O)[C@]34C1[C@H](C[C@H]23)[C@@]1(O)C[C@H](OC)[C@H]2C[C@@H]4[C@@H]1[C@H]2OC(C)=O
2: COC1=C[C@@H]2[C@@H]3Cc4ccc(OC)c(O)c4[C@]2(CCN3C)CC1=O
compound no.	1	2
BJeLR viability	0.0	1.2
A1 inh	0.2	-0.6

# This part in full, from the start:
1: CCN1C[C@]2(COC)CC[C@H](O)[C@]34C1[C@H](C[C@H]23)[C@@]1(O)C[C@H](OC)[C@H]2C[C@@H]4[C@@H]1[C@H]2OC(C)=O
2: COC1=C[C@@H]2[C@@H]3Cc4ccc(OC)c(O)c4[C@]2(CCN3C)CC1=O
3: CC(C)(C)NC[C@H](O)COc1cccc2[nH]c(C#N)cc12
4: CC(Cc1ccccc1)[n+]1cc(/N=C(\N)[O-])on1 (configuration not stated)
5: CCSc1nc2ccccc2c(=O)n1-c1cccc(OC)c1
6: CC(C)(C)C(=O)C(Oc1ccc(Cl)cc1)n1cncn1 (configuration not stated)
compound no.	1	2	3	4	5	6
BJeLR viability	0.0	1.2	-7.0	3.0	0.4	3.6
A1 inh	0.2	-0.6	-0.3	1.0	0.3	0.8

# Quoted at random: 3 records from the list.
3: CC(C)(C)NC[C@H](O)COc1cccc2[nH]c(C#N)cc12
1: CCN1C[C@]2(COC)CC[C@H](O)[C@]34C1[C@H](C[C@H]23)[C@@]1(O)C[C@H](OC)[C@H]2C[C@@H]4[C@@H]1[C@H]2OC(C)=O
2: COC1=C[C@@H]2[C@@H]3Cc4ccc(OC)c(O)c4[C@]2(CCN3C)CC1=O
compound no.	3	1	2
BJeLR viability	-7.0	0.0	1.2
A1 inh	-0.3	0.2	-0.6

# (further entries)
7: C=CC1CN2CCC3(C(=O)Nc4ccccc43)C2CC1/C(=C/OC)C(=O)OC (configuration not stated)
8: CN1Cc2c(ccc3c2OCO3)C2C(O)Cc3cc4c(cc3C21)OCO4 (configuration not stated)
9: CC(C)c1cc2c(cc1O)[C@@]1(C)C[C@@H](O)CC(C)(CO)C1CC2 (some centres not stated)
10: NC(N)=NC(N)=Nc1ccc(Cl)cc1
11: CCc1nc2ccccc2c(=O)n1-c1ccccc1Cl
12: O=P1(Nc2ccc(F)cc2)COc2ccccc2OC1
compound no.	7	8	9	10	11	12
BJeLR viability	0.4	72.1*	-2.9	0.6	0.8	-8.1
A1 inh	0.7	2.2	-0.6	-0.2	0.3	0.3

# A portion of the library; rates above refer to the full screens.
